Biofilm kill mix – mixtures killing C. albicans biofilm; C. albicans biofilm persisters + clotrimazole, fluorescence viability; primary screen in compound mixtures of four per well; inhibition, % at 7.6 µM; 120,000 compounds, 0.02% hits; AID 1242;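 active means inhibition above 30.3% in the primary screen of four-compound pools, then above 30% when the compound was retested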;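 further: compounds exposed to preformed 24 h biofilms for 48 h; the number belongs to the whole pool; some results filed as inactive read as strong as hits; inactives centre near 12; 0% = biofilm with clotrimazole alone and 100% = kill control; retested singly at about 60 µM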
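Test system: C. albicans CAF4-2 wild-type biofilms; buffer or medium: RPMI/MOPS medium, pH 7.0; schedule: 24 h biofilm formation, then 48 h compound exposure, 37 °C; detection: Alamar Blue fluorescence; measure: percent inhibition of biofilm viability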
Active calls of the source: *. A portion of the library; count on the stated rates, not on these rows.

SMILES | Biofilm kill mix
O=C(OCc1nc2ccccc2s1)c1cc2ccccc2oc1=O | 15
O=C1CCCC(O)=C1Sc1ccccc1C(=O)O | 5
c1ccc2cc3c(NCCN4CCOCC4)ccnc3cc2c1 | 4
COC(=O)c1ccc(CNC(=O)COC(=O)CC23CC4CC(CC(Br)(C4)C2)C3)cc1 | -13
COc1ccc(CNC(=O)C(C)Sc2ccc(C)cc2)cc1 (stereo not drawn) | 43
CCOc1ccccc1NC(=O)CN(c1ccc(OC)cc1OC)S(=O)(=O)c1ccccc1[N+](=O)[O-] | -5
Cc1cc(C)n(C(=O)COc2ccc([N+](=O)[O-])cc2)n1 | 13
CN(C)/C=N/c1ncc(C(=O)c2ccc(-c3ccccc3)cc2)s1 | 6
O=C(CSCc1ccc([N+](=O)[O-])cc1)NC1CC2CCC1C2 (stereo not drawn) | 9
Cc1ccc(-n2c3nc(=O)[nH]c(=O)c-3cc3cc([N+](=O)[O-])ccc32)cc1 | 24
CCOC(=O)/C(=C/c1ccccc1)NC(=O)c1ccco1 | 10
COc1cc(C2NC(=O)NC(C)=C2C(=O)OCc2ccccc2)ccc1O (stereo not drawn) | 13
CCOC(=O)c1ccc[n+](CC(=O)Nc2cc(C(F)(F)F)ccc2Cl)c1 | 3
N#C/C(=C/c1ccc(-c2ccccc2)o1)c1nc(-c2cccs2)cs1 | 13
N#Cc1c(-c2ccccc2)nc(-c2ccncc2)[nH]c1=O | 9
Cc1c(C=O)c2ccccc2n1CC(=O)NCc1ccc2c(c1)OCO2 | 10
CC1CC1C(=O)Nc1ccc(-c2ccccc2)cc1 (stereo not drawn) | 13
CCOC(=O)c1c(-c2ccc(OC)c(OC)c2)csc1NC(=O)C1CCCO1 (stereo not drawn) | 10
CCOC(=O)c1c(C)oc2ccc(NS(=O)(=O)c3ccc(C(=O)O)cc3)cc12 | 20
CC(Oc1ccccc1)C(=O)Nc1cccc([N+](=O)[O-])c1 (stereo not drawn) | 11
COC(=O)N[C@H](CC(C)=O)c1cccc(C(F)(F)F)c1 | 13
COc1cccc(-n2c(=S)sc3c(=O)n(-c4ccccc4OC)c(SCC4OCCO4)nc32)c1 | 28
O=C(CC1C(=O)NCCN1C/C=C/c1ccccc1)NCCCC1CCCC1 (stereo not drawn) | 26
COc1cccc(OCc2nnc(SCc3cc(=O)[nH]c4ccccc34)o2)c1 | 22
CC(C)(C)NC(=O)NC(=O)COC(=O)c1nc(-c2ccccc2)n(-c2cccc(C(F)(F)F)c2)n1 | 5

5 structures out of the list, sorted by length of the SMILES, low to high:
SMILES | Biofilm kill mix
COc1cc(C2NC(=O)NC(C)=C2C(=O)OCc2ccccc2)ccc1O (stereo not drawn) | 13
N#C/C(=C/c1ccc(-c2ccccc2)o1)c1nc(-c2cccs2)cs1 | 13
CCOC(=O)c1ccc[n+](CC(=O)Nc2cc(C(F)(F)F)ccc2Cl)c1 | 3
CCOC(=O)c1c(C)oc2ccc(NS(=O)(=O)c3ccc(C(=O)O)cc3)cc12 | 20
Cc1ccc(-n2c3nc(=O)[nH]c(=O)c-3cc3cc([N+](=O)[O-])ccc32)cc1 | 24

Other entries:
SMILES | Biofilm kill mix
Cc1cccc(N2CCN(C(=O)COc3ccc4c(c3)CCC4)CC2)c1C | 17
Cc1nnc(-c2ccc(N3CCCCCC3)c([N+](=O)[O-])c2)o1 | 17
COc1ccccc1NC(=O)COC(=O)C12CC3CC(CC(Cl)(C3)C1)C2 | -7
CCOc1ccc(N2C(=O)C3ON(c4ccccc4)C(c4ccco4)C3C2=O)cc1 (stereo not drawn) | 15
CCC1CO/C(=C(\C(=C(Cl)Cl)N2CCOCC2)[N+](=O)[O-])N1 (stereo not drawn) | 0
c1ccn(-c2ccc(-c3ccn[nH]3)cc2)c1 | 19
Cc1ccc(C(=O)N/C(=C/c2cccs2)C(=O)N2CCCCC2)cc1 | 11
Cc1c(C(=O)O)c(C(=O)O)c2n1CCS2 | 18
C/C(=N\NC(=O)OC(C)(C)C)c1ccc[nH]1 | 11
COc1ccc(OCC(=O)OCC(=O)N2CC(=O)Nc3ccccc32)cc1 | 21
Cc1cc(C(=O)N2CCN(S(=O)(=O)c3ccccc3F)CC2)c(C)o1 | 7
Oc1c(C=NCc2ccccc2)sc2ccccc12 | 8
CCC(=O)Nc1nnc(SCc2ccccc2F)s1 | 21
COc1cc(OC)cc(C(=O)N[C@H](C(=O)OCC(=O)c2ccc(F)cc2)C(C)C)c1 | 19
CC1=CC(C)[C@H](/C=N/n2c(=O)[nH]c3c([nH]c4ccc(C)cc43)c2=O)C(C)C1 (stereo partly drawn) | 14
Cc1cccc2c(CC(=O)Nc3ccccc3)noc12 | 5
CCCOc1ccc(-c2nnc(-c3cccs3)o2)cc1 | 4
CC(=O)c1c(COC(=O)c2cccc(C)c2)nc2ccccc2[n+]1[O-] | 23
COc1cc(/C=N/NC(=O)CCC(=O)Nc2ccc(C)cc2)ccc1O | -3
CCOC(=O)CN(C(=O)COc1nc(-c2ccccc2)cc(C)c1C#N)c1ccccc1C | 17
CCOc1ccccc1C(=O)Nc1nn[nH]n1 | -1
COc1cccc(/C=N/NC(=O)CCCC(=O)Nc2ccc(Br)cc2)c1 | 20
O=C(COC(=O)CCc1nc2ccccc2n1-c1ccccc1)Nc1ccc(N2CCCCC2)cc1 | 5
Cc1cc(-c2nc(C)c(C(=O)NNC(=O)NC(C)C)s2)no1 | 11
COc1cc(C(=O)N/N=C(\C)c2ccc3c(c2)OCO3)cc(OC)c1OC | 8

Quoted from the listing.
Biofilm kill mix result of Cc1cc(-c2nc(C)c(C(=O)NNC(=O)NC(C)C)s2)no1 is entered as 11
Biofilm kill mix result of Cc1cccc2c(CC(=O)Nc3ccccc3)noc12 is entered as 5
Biofilm kill mix result of COc1cc(/C=N/NC(=O)CCC(=O)Nc2ccc(C)cc2)ccc1O is entered as -3
Biofilm kill mix result of CCOc1ccccc1NC(=O)CN(c1ccc(OC)cc1OC)S(=O)(=O)c1ccccc1[N+](=O)[O-] is entered as -5
Biofilm kill mix result of COc1cc(C2NC(=O)NC(C)=C2C(=O)OCc2ccccc2)ccc1O (stereo not drawn) is entered as 13

Following part
SMILES | Biofilm kill mix
CCC[n+]1c(C)sc2c(OC)ccc(OC)c21 | 13
Cc1ccc(C(=O)NC(=S)Nc2cccc(-c3nc4ccccc4s3)c2)cc1 | 18
CCOc1ccc(N2C(=O)C3Sc4[nH]c(=O)sc4C(/C=C/c4ccccc4)C3C2=O)cc1 (stereo not drawn) | 17
CC(=O)Nc1ccc(OCC(O)CN2C(C)(C)CC(O)CC2(C)C)cc1 (stereo not drawn) | 21
Cc1nn(C)cc1S(=O)(=O)N1CCN(Cc2ccc(F)cc2Cl)CC1 | 15
Cc1ccc(-n2nnc(-c3cnc4ccccc4c3)n2)cc1 | 14
CCCCOc1ccc(CSCCN)cc1Cl | 18
COCCN1C=C2C(=O)C(C)(OC(=O)c3cccs3)C(=O)C=C2C=C1CCCC(=O)OC (stereo not drawn) | 18
CCN(CC)S(=O)(=O)N1CCN(S(=O)(=O)N2CCOCC2)CC1 | 14
CC(C)(C)NC(=O)COC(=O)c1nsc(Cl)c1Cl | 14
C/C(=N\Nc1nc2ccccc2[nH]1)c1ccc([N+](=O)[O-])cc1 | 19
COc1cccc(N2C(=O)C3NN=C(C(=O)CN4C(=O)c5ccccc5C4=O)C3C2=O)c1 (stereo not drawn) | 11
O=S(=O)(NCCc1ccc(F)cc1)c1cccc2cccnc12 | 10
Cc1ccc(NC(=O)CSc2nc(N)c3c4c(sc3n2)CSC(C)(C)C4)cc1 | 11
COc1cccc(C(=O)CSc2nc3cccnc3n2C)c1 | 7
N/C(=N\OC(=O)Cc1cccs1)c1ccc(Cl)cc1 | 19
CCC(Sc1nc(C)cc(C)n1)C(=O)Nc1ccc(Cl)cn1 (stereo not drawn) | 11
Cc1cc(NC(=O)c2ccccc2)nc(C)n1 | 16
CCN(Cc1ccccc1)c1ccc(/C=N/NS(=O)(=O)c2cccc([N+](=O)[O-])c2)cc1 | 12
CCN(C(=O)C(C)Cl)c1ccccc1 (stereo not drawn) | 10
Cc1cc(C(=O)Cn2nc(C(=O)O)c3ccccc3c2=O)c(C)n1CCc1ccc(F)cc1 | 8
CCn1c(=O)c(C(=O)CN2CCN(S(=O)(=O)c3ccccc3)CC2)c(N)n(Cc2ccccc2)c1=O | -1
CC(C)(C)c1ccc(COc2ccsc2C(=O)O)cc1 | 23
Cc1cc2cc(CNC(=S)Nc3ccc(OC(F)(F)F)cc3)ccc2n1C | 12
Cc1nnsc1C(=O)N1CCCC(C(=O)c2ccc(C(F)(F)F)cc2)C1 (stereo not drawn) | 16
SMILES | Biofilm kill mix
COC(=O)c1sccc1NC(=O)Nc1cccc(C)c1 | -10
CC/C(=N/NS(=O)(=O)c1ccc(Cl)cc1)c1ccc(O)cc1 | 9
CCC(C)[C@H](NC(=O)NCc1cccnc1)C(=O)OC (stereo partly drawn) | 11
O=C(Nc1ccc(F)cc1F)Nc1sccc1-c1nc2ccccc2s1 | 11
O=C1CC(c2cc([N+](=O)[O-])ccc2Cl)c2c(ccc3ccccc23)N1 (stereo not drawn) | 10
O=[N+]([O-])c1c(NCCCO)cc(N2CCN(Cc3ccc4c(c3)OCO4)CC2)c2nonc12 | 11
CCOC(=O)CNc1ccc(C(=O)OCC)cc1[N+](=O)[O-] | 8
O=C(CSc1nc(-c2ccccc2)nc2ccc(F)cc12)Nc1ccc(C(=O)O)cc1 | 4
CCCCN(CC)CCCNC(=O)CN1C(=O)CSc2ccc(S(=O)(=O)N3CCOCC3)cc21 | 4
COc1ccc(NC(=S)N2CCN(CCN3C(=O)c4cccc5cccc(c45)C3=O)CC2)cc1 | -4
O=C(NCc1ccccc1)C(=O)Nc1nc(C23CC4CC(CC(C4)C2)C3)cs1 | 21
COC(=O)C1SCC2C(=O)N(Cc3cccc(C)c3)CC(=O)N21 (stereo not drawn) | 20
O=C(/C=C/c1ccccc1)C1=C(O)C(=O)N(CCO)C1c1ccccc1[N+](=O)[O-] (stereo not drawn) | 28
CCCCCCC1CC(CC(=O)Nc2ccc([N+](=O)[O-])cc2)C(=O)O1 (stereo not drawn) | 7
O=C(CC1(O)C(=O)Nc2ccccc21)c1cccc(Br)c1 (stereo not drawn) | 11
O=C(Nc1ccccc1)Nc1cccc(-c2cn3cccnc3n2)c1 | 14
NC(=O)CCC(C(=O)O)N1C(=O)c2ccc(O)cc2C1=O (stereo not drawn) | 24
CCCNC(=O)COc1ncnc2sccc12 | 6
COC(=O)CSc1nnc(Cc2ccccc2)n1-c1ccc(C)cc1 | 7
O=C1CCCC(=O)N1c1ccc(N2CCOCC2)c([N+](=O)[O-])c1 | 13
COc1cccc(CC(=O)Nc2nc(-c3cccnc3)cs2)c1 | 1
C/C(=N\NC(=O)COc1ccccc1-c1ccccc1)c1ccc(O)cc1O | 16
Cc1ccc(C(=O)NCC(=O)Nc2cccc(S(=O)(=O)NC3=NCCCCC3)c2)cc1C | 17
CCN(CC(=O)Nc1cccc(C#N)c1)CC(=O)Nc1cccc(OC)c1 | 5
N=c1oc2ccccc2cc1-c1nc(-c2ccccc2)cs1 | 17

An excerpt of these results, tab-delimited:
mol	Biofilm kill mix
O=C(CSc1nc(-c2ccccc2)nc2ccc(F)cc12)Nc1ccc(C(=O)O)cc1	4
CCCCN(CC)CCCNC(=O)CN1C(=O)CSc2ccc(S(=O)(=O)N3CCOCC3)cc21	4
COc1ccc(NC(=S)N2CCN(CCN3C(=O)c4cccc5cccc(c45)C3=O)CC2)cc1	-4
O=C(NCc1ccccc1)C(=O)Nc1nc(C23CC4CC(CC(C4)C2)C3)cs1	21

Going on with the list.
SMILES | Biofilm kill mix
CCn1c2ccccc2c2cc(NC(=O)COc3ccccc3)ccc21 | -11
COc1ccc([N+](=O)[O-])cc1-n1cnnn1 | 17
CC(NC(=O)COc1ncnc2cc([N+](=O)[O-])ccc12)c1ccccc1 (stereo not drawn) | 18
CC1=CSC2=NC(C(F)(F)F)(C(F)(F)F)NC(=O)N12 | 13
C(/CCc1ccccc1)=N\Nc1nc2ccccc2[nH]1 | 6
COc1ccc(C(=O)Nc2cccc(/C=C/c3nc4ccccc4c(=O)[nH]3)c2)cc1 | 19
Cc1ccn2c(NC3CCCC3)c(-c3cccs3)nc2c1 | 10
O=C(N[C@@H](Cc1ccccc1)C(=O)OCc1ccccc1)c1nc[nH]c1C(=O)NC(c1ccccc1)c1ccccc1 | 16
COc1ccc(C(C(=O)NC(C)(C)C)N(C(=O)CNC(=O)c2cccs2)c2ccc(NC(C)=O)cc2)cc1OC (stereo not drawn) | 11
COc1cccc(N(Cc2nnc3n2CCCCC3)C(=O)Nc2ccccc2F)c1 | 12
COc1cc(/C=N/N=C(\N)c2nonc2N)cc(OC)c1OC | 6
Cc1ccnc(NC(=O)COc2c(C)cc(C)cc2[N+](=O)[O-])c1 | 9
O=S(=O)(c1ccc(F)c(F)c1F)N1CCN(C(=S)NC2CC3CCC2C3)CC1 (stereo not drawn) | 8
COc1ccc(N(Cc2cc3ccc(C)cc3[nH]c2=O)C(=O)C2CCCO2)cc1 (stereo not drawn) | 1
COc1ccc(C2Nc3ccccc3C(=O)N2c2ccc(F)cc2)cc1CSc1ccccn1 (stereo not drawn) | 18
CCCCCC(=O)NNC1=NCC(Cc2cccc(Cl)c2)S1 (stereo not drawn) | -3
Cc1cc(C)c(NC(=O)C2CCCN2CCOC(=O)c2ccccc2)c(C)c1 (stereo not drawn) | 9
Cc1cc(N2CCOCC2)nc2ccc(NC(=S)NCc3ccc4c(c3)OCO4)cc12 | 6
Clc1ccc(-c2nc3ccccc3nc2-c2ccccc2)cc1 | 14
CCN(CC(=O)NC1CCS(=O)(=O)C1)S(=O)(=O)c1ccc(F)cc1 (stereo not drawn) | 13
NS(=O)(=O)c1ccc(N=Nc2ccc(=O)[nH]c2O)cc1 | 16
CCOc1ccccc1C(=O)NC(C(=O)NCc1ccccc1OC)C(C)C (stereo not drawn) | -9

Screening data deposited in PubChem BioAssay by PCMD.
